AID504770 – growth inhibitors of E. coli YBA685 in a screen for V. cholerae RctB (chromosome II replication) inhibitors. E. coli YBA685 rctB-dependent plasmid, OD600 growth, 3 h; active compounds read low. z-score (concentration not given with the values). hit rate 0.27% among 130,000. AID 504770;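 active means z-score under -2 on both plates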;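 further: wells of about 30 µL received 100 nL stock; score is relative to mean and SD of the test wells; the first replicate is given; strong numbers were not always called active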
CapD inh – blocks the Bacillus anthracis CapD enzyme; z-score (no concentration beside the values); hit rate 0.23% among 140,000; purified CapD enzyme, fluorescence intensity read-out; active compounds read low; some hits fall short of the stated cut; AID 492967;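 active means z-score under -4 in either of two replicates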;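 further: stock transfer was 100 nL into about 40 µL; score is relative to mean and spread of the plate; one replicate is shown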
An asterisk follows results filed as active; . = not tested or not shown; & = joins results of further samples.

Start of the listing, in advance, 18 compounds:
SMILES	AID504770	CapD inh
Cc1cccc(CCOC(=O)N2CCC(C(=O)c3ccc(Cl)cc3)CC2)c1	.	-0.16
COC(=O)c1ccc(C(=O)Nc2sccc2C#N)cc1	1.6	-0.215
COC(=O)c1ccsc1NC(=O)c1cccc(C)c1	-0.95	.
CCOC(=O)NCc1n[nH]c(=O)c2ccccc12	-0.6	.
CCOC(=O)N1CCC(NCC(O)COc2ccccc2C(C)C)CC1 (stereo not drawn)	-0.2	.
COc1cccc(-c2ocnc2C(=O)NC2CCc3ccccc32)c1 (stereo not drawn)	-0.05	.
CCc1ccccc1NC(=O)NCCN1CCN(c2ccccc2)CC1	1	-1.04
Cc1c(-c2csc(-c3ccno3)n2)sc2ccccc12	-1.25	-3.52*
COc1cccc(CCOC(=O)NNC(=O)c2cccc3ccccc23)c1	.	4.55
CCc1cccc(NC(=O)CSc2nc3c(c(=O)[nH]2)CCCC3)c1	0.1	0.16
CCOC(=O)C1CCN(S(=O)(=O)c2ccc3c(c2)CCO3)CC1	-0.35	-1.44
CN(C)c1nc(Oc2ccc(OCC(N)=O)nn2)nc(N(C)C)n1	.	0.035
NC(=O)c1ccc(N2CCN(c3ncc(C(F)(F)F)cc3Cl)CC2)cc1	.	-0.61
COC(=O)c1cnc(N2CCN(c3ccccc3)CC2)c2ccccc12	-0.45	1.44
Cc1cc(CNC(=O)c2cnc3ccccc3n2)c(C(F)(F)F)o1	-0.3	-0.845
COc1ccc(C(=O)NNC(=O)OCCC2CCCCC2)cc1	.	0.185
O=C(c1ccccc1)C1(C(=O)c2ccccc2)CC1c1ccccc1 (stereo not drawn)	2.05	-0.72
COc1ccc(-c2nnc(Sc3nc4ccccc4o3)c3ccccc23)cc1	.	0

The listing, from the first entry:
SMILES	AID504770	CapD inh
Cc1cccc(CCOC(=O)N2CCC(C(=O)c3ccc(Cl)cc3)CC2)c1	.	-0.16
COC(=O)c1ccc(C(=O)Nc2sccc2C#N)cc1	1.6	-0.215
COC(=O)c1ccsc1NC(=O)c1cccc(C)c1	-0.95	.
CCOC(=O)NCc1n[nH]c(=O)c2ccccc12	-0.6	.
CCOC(=O)N1CCC(NCC(O)COc2ccccc2C(C)C)CC1 (stereo not drawn)	-0.2	.
COc1cccc(-c2ocnc2C(=O)NC2CCc3ccccc32)c1 (stereo not drawn)	-0.05	.
CCc1ccccc1NC(=O)NCCN1CCN(c2ccccc2)CC1	1	-1.04
Cc1c(-c2csc(-c3ccno3)n2)sc2ccccc12	-1.25	-3.52*
COc1cccc(CCOC(=O)NNC(=O)c2cccc3ccccc23)c1	.	4.55
CCc1cccc(NC(=O)CSc2nc3c(c(=O)[nH]2)CCCC3)c1	0.1	0.16
CCOC(=O)C1CCN(S(=O)(=O)c2ccc3c(c2)CCO3)CC1	-0.35	-1.44
CN(C)c1nc(Oc2ccc(OCC(N)=O)nn2)nc(N(C)C)n1	.	0.035
NC(=O)c1ccc(N2CCN(c3ncc(C(F)(F)F)cc3Cl)CC2)cc1	.	-0.61
COC(=O)c1cnc(N2CCN(c3ccccc3)CC2)c2ccccc12	-0.45	1.44
Cc1cc(CNC(=O)c2cnc3ccccc3n2)c(C(F)(F)F)o1	-0.3	-0.845
COc1ccc(C(=O)NNC(=O)OCCC2CCCCC2)cc1	.	0.185
O=C(c1ccccc1)C1(C(=O)c2ccccc2)CC1c1ccccc1 (stereo not drawn)	2.05	-0.72
COc1ccc(-c2nnc(Sc3nc4ccccc4o3)c3ccccc23)cc1	.	0
Cc1noc(C)c1CSc1nc(-c2cccs2)c(-c2cccs2)[nH]1	0.1	.
O=C(c1cc(-c2ccccc2)oc1-c1ccc(C(F)(F)F)cc1)N1CCN(C(c2ccccc2)c2ccccc2)CC1	.	12.7
Cn1ncc(Cl)c1C(=O)NC(=S)Nc1sc2c(c1C#N)CCCC2	-0.25	.
O=C(Nc1ccccc1)N(C1=NCCCCS1)c1ccccc1	-2.35	.
COc1ccccc1C1(CCNC(=O)c2ccccc2C(=O)O)CCOC(C)(C)C1 (stereo not drawn)	-0.95	-0.115
COc1ccccc1NC(=O)c1ccc(-c2ccccc2)s1	0.05	-1.93
COc1ccc(/C(=N/O)c2nccc3cc(OC)c(OC)cc23)cc1OC	-0.85	0.005
COc1ccccc1Nc1nnc(-c2ccc(OC(C)C)c(OC)c2)o1	-0.75	.
COc1ccccc1NC(=O)C(C)NS(=O)(=O)c1ccccc1 (stereo not drawn)	-0.6	-0.3
N#C/C(=C\c1ccc(Cl)c(Cl)c1)c1nn(-c2ccccc2)c(-n2cccc2)c1C#N	.	0.155
CCN(CC)c1nc(-c2cccs2)c(C(=O)c2ccc(N3C(=O)CCC3=O)cc2)s1	-0.7	.
CC(C)(C)c1ccc(-c2cc3ncc(-c4ccccc4)c(N)n3n2)cc1	-2.3*	75.8
COc1ccc(/C=C2\Cc3ccccc3C2=O)cc1	-0.5	-0.11
CC1=C(C(=O)OCCOc2ccccc2)C(c2coc3ccc(Cl)cc3c2=O)C2=C(CC(C)(C)CC2=O)N1 (stereo not drawn)	.	-1.05
O=C(/C=C/NCc1ccccc1)c1ccc(Br)cc1	-0.6	-2.1
CCC(SC1=Nc2ccccc2C2=NC(c3ccccc3)C(=O)N12)C(=O)NCc1ccco1 (stereo not drawn)	-0.75	11
CSC(=Nc1cc(-c2ccccc2)[nH]n1)Nc1ccccc1	-0.2	0.33
CCOC(=O)c1cc(C(=O)OCC)c(=S)[nH]c1O	-1.5	.
CCCOc1nnc(-c2ccc(C)cc2)c2ccccc12	.	-0.215
Brc1ccc2[nH]ccc2c1	.	-0.09
COc1ccc(CNc2ccc(-c3ccc(OC)cc3)nn2)cc1	1	.
CNS(=O)(=O)c1cn(CC(=O)NC2CCCC2)cc1S(=O)(=O)NC	-0.95	0.215
N#C/C(=C\c1cccnc1)c1cccs1	0.2	57.6
COc1ccc2c(=O)c(Oc3ccccc3)coc2c1	-0.7	-0.28
O=C(NCCOc1ccc(Cl)cc1)c1cccs1	0.35	-0.755
NC(=O)c1c(NC(=O)CSc2nc(-c3cccs3)cc(C(F)(F)F)n2)sc2c1CCC2	-1	-0.5
CCN(CC)S(=O)(=O)c1ccc(C(=O)Nc2nnc(-c3ccc(Cl)cc3Cl)s2)cc1	.	0.255
O=C(OCc1ccc(F)cc1)c1cc(-c2ccco2)nc2ccccc12	-0.15	.
Cc1cccc(COc2ccccc2C(=O)O)c1	0.4	.
CC(C)(C)OC(=O)N/N=C\c1ccc[nH]1	0.1	0.025
CN(C)S(=O)(=O)Oc1cccc(C(=O)Nc2ccc(Cl)c(Cl)c2)c1	.	-0.305
O=C(CCCn1sc2ccccc2c1=O)NCCC1=CCCCC1	0.25	-0.26
CCc1ccccc1NC(=O)Cn1nnc(C(=O)NCc2ccccc2)c1N	0.45	0.515
CCC(CO)NC(=O)c1cc2sc3ccccc3c2s1 (stereo not drawn)	-0.35	21.3
CS(=O)(=O)c1ccc(CN(Cc2ccccn2)C(=O)c2cc(Cl)nc(Cl)c2)cc1	.	0.52
O=C(O)CSc1nc2ccccc2n1Cc1ccccc1	.	-0.79
CC(C)COC(=O)n1c(=O)oc2ccc(S(=O)(=O)N3CCCCC3)cc21	-0.8	0.105
O=C(c1cccs1)N(Cc1nc2sc3c(c2c(=O)[nH]1)CCCC3)C1CCCC1	-0.65	.
CCOCCn1cnc2sc(C(=O)NC(C)C)c(C)c2c1=O	.	8.62
CN(C(=O)C(Cl)Cl)c1ccc(OC(=O)c2ccco2)cc1	.	0.04
COc1ccc(C(=O)COC(=O)CCn2c(C)csc2=O)cc1Cl	-0.45	.
CCOc1ccnc(SCC(=O)CC(=O)c2ccccc2)c1C#N	0.7	28.3
More compounds follow.
SMILES	AID504770	CapD inh
Cc1cc(C)nc(Nc2ccc(OC(C)C)cc2)n1	.	-0.465
O=CNCCc1c[nH]c2ccccc12	1.75	-0.365
COc1ccccc1N/C=C/c1onc(-c2c(Cl)cccc2Cl)c1C#N	.	1.59
Cc1nc(N2CCN(C)CC2)c2c(C)c(C(=O)Nc3cc(C)on3)sc2n1	.	8.12
O=C(CCSc1ccccc1)Nc1nc(-c2cccs2)cs1	0.15	-0.245
CN(C)CCCO[C@H]1[C@@H](C(O)CO)OC2OC(C)(C)O[C@@H]21 (stereo partly drawn)	0.65	0.07
CCN1CCN(c2nnc(-c3ccc(C)cc3)c3ccccc23)CC1	.	-0.09
Cc1cc2c(cc1C)CSC(c1c(O)ccc3cc(Br)ccc13)SC2	.	0.68
Fc1ccc(CSc2ncnc3ccccc23)cc1	0.1	-0.145
C=C(C)CSc1nnc2n(-c3ccc(C)cc3)c(=O)c3c4c(sc3n12)CCCCC4	.	-0.345
Cc1ccccc1N1CCN(C(=O)OCC2CC3C=CC2C3)CC1 (stereo not drawn)	.	0.48
Cc1nccn1CCC1CCNCC1	-0.15	.
Cc1c(NC(=O)NNc2ccccc2)sc2nc(-c3ccc(Cl)cc3)nn12	-0.3	1.77
O=S(=O)(c1ccc(SC2Cc3ccccc3C2O)nc1)N1CCOCC1 (stereo not drawn)	-0.65	.
O=C1NC(=O)C(c2ccccc2)(c2ccccc2)N1	-1.15&0.15&0.25	0&-0.885
CCCCSc1nnc2c(n1)OC(c1ccco1)Nc1ccccc1-2 (stereo not drawn)	.	-0.35
COc1ccccc1CN1CC(C(=O)NCC2CCCO2)CC1=O (stereo not drawn)	-0.9	-0.045
O=C(O)COc1ccc(/C=N/NC(=O)c2ccc(OC(F)(F)F)cc2)cc1	.	0.18
CN(n1cnc2ccsc2c1=O)S(=O)(=O)c1cc(C(F)(F)F)cc(C(F)(F)F)c1	-0.6	0.195
CC(C)C(c1nnnn1Cc1ccccc1)N1CCCc2ccccc21 (stereo not drawn)	0.2	.
CCCS(=O)(=O)NCCc1cc2ccc(C)c(C)c2[nH]c1=O	0.2	1.71
CCCOC(=O)c1ccc(N=Cc2ccc(C)s2)cc1	-1.1	-0.495
CC(=O)N1CCc2cc(NC(=O)CC(=O)c3ccccc3)ccc21	0.05	.
Cc1c(Cl)c(=O)[nH]c2ccccc12	.	11.2
CC(=O)Nc1ccc([N+](=O)[O-])cc1	.	-1.65
CCN(c1cccc(C)c1)S(=O)(=O)c1ccc2[nH]cc(C(=O)NCc3ccccc3OC)c(=O)c2c1	.	-1.07
O=c1c2cccnc2nc(SCc2ccc(Cl)cc2)n1Cc1ccccc1	0.2	0.245
Cc1cccc(CN2CCN(C(=O)OCc3ccc(-c4ccccc4)cc3)CC2)n1	.	0.43
CC(=O)N1CCn2c1nc1ccccc12	-1.15	0.76
FC(F)(F)c1ccncc1-c1nnc(-c2ccccc2)o1	-0.85	-0.09
O=C(O)C1CCCCC1c1nc2ccccc2s1 (stereo not drawn)	0.25	.
CCOc1ccc(/C=C2/SC(=Nc3ccccc3)NC2=O)cc1OC	.	-0.52
CC(Oc1ccccc1)c1nc(-c2cccnc2)no1 (stereo not drawn)	-0.85	0.17
O=C(CN1CCN(CC(=O)Nc2ccccc2F)CC1)Nc1ccc(F)cc1	-0.65	0.735
CCc1cc(=O)oc2c(CN(C)C)c(O)c(Cl)cc12	2.1	91.5
O=C(O)COCc1nc2ccccc2[nH]1	-0.75	0.31
C=CCn1c(SC(C)C#N)nnc1-c1ccc(Br)cc1 (stereo not drawn)	-0.5	.
COc1cccc2cc3c(=O)n(-c4ccccc4)nc-3oc12	0.1	-0.58
COc1ccc(N=c2oc3ccccc3cc2C(N)=O)cc1	-0.4	-0.265
Cc1ccc(NC(=O)CSc2nc(C)cc(C)c2C#N)cc1	1.05	.
O=C(CSc1nc2ccccc2s1)N1CCCCC1	1.15	-0.91
Brc1ccc(-c2noc(-c3ccccc3)n2)o1	-0.9	-0.335
COc1ccc(NS(=O)(=O)c2ccc3c4c(cccc24)C(=O)S3)cc1	0.15	-0.135
CC1CN(S(=O)(=O)c2ccc(C3CCCCC3)cc2)CC(C)O1 (stereo not drawn)	0.25	0.26
COc1ccc(C(CC(=O)c2cccs2)SCc2ccco2)cc1OC (stereo not drawn)	1	.
O=C(NCc1ccccc1)c1ccoc1	.	0.33
Oc1ccc2c(CN3CCCCC3)c(O)ccc2c1CN1CCCCC1	0.1	1.64
CCCN=C(C)c1c(CCC)[nH]n(-c2nc3ccccc3s2)c1=O	.	-0.315
CCC(C)(C(=O)NC1CCCC1)N(C(=O)CC1NC(=O)NC1=O)c1c(C)n(C)n(-c2ccccc2)c1=O (stereo not drawn)	-0.4	-0.115
CCOC(=O)COc1ccc(C(C2=C(O)CC(C)(C)CC2=O)C2C(=O)CC(C)(C)CC2=O)cc1OC (stereo not drawn)	.	5.97
Cc1ccc2c(c1)-c1sc(C(=O)Nc3ccc(F)cc3F)cc1CS2	.	1.42
COc1ccc(N2CCN(CCCNC(=O)NC3CC(=O)N(c4ccc5c(c4)OCCO5)C3)CC2)cc1 (stereo not drawn)	0.7	.
COc1ccc(CNC(=O)[C@@H]2CCCN2C(=O)OC(C)(C)C)cc1OC	0.55	.
O=S(=O)(Nc1ccncc1)c1ccc2ccccc2c1	-0.8	0.395
CCOC(=O)N1CCC(NC(=O)Nc2ccc3c(c2)CCO3)CC1	-0.65	0.46
O=C(O)CCC(=O)Nc1ccc(Oc2ccccc2)cc1	-0.5	-1.08
N#CCCN(Cc1ccccc1)C(=O)c1nccnc1C(=O)O	-0.25	1.44
N#CCCn1c(SCC(=O)Nc2cccc3ccccc23)nc2ccccc21	-0.5	.
CCOc1ccc(OCCCCn2ccnc2)cc1	-0.5	0.175
CC(SC1CC(=O)N(c2ccccc2)C1=O)C(=O)O (stereo not drawn)	2.3	-1.56
Next part:
SMILES	AID504770	CapD inh
O=C(COC(=O)CCc1c[nH]c(=O)[nH]1)Nc1cccc(Cl)c1	-0.1	-0.21
CCN(CC)c1ccc2nnc(CCC(=O)NCC3CCN(Cc4ccc(C)cc4)C3)n2n1 (stereo not drawn)	-1.1	-0.215
Cc1cc(SCC2=NNC(=O)/C2=C/N(C)C)c(Cl)cc1Cl	.	-0.87
COc1ccc(S(=O)(=O)N2CCN(C(=O)c3cc(-c4ccccc4OC)n[nH]3)CC2)cc1	0	0.49

Source: PubChem
